BasE inh: BasE siderophore enzyme inhibitors, primary screen, biochemical, Acinetobacter baumannii ATCC 17978, fluorescence polarization; purified BasE, fluorescence polarization binding displacement; inhibition, % (concentration not given with the values); 0.1% of 84,000 active; AID 485350, 2010;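 active = both replicates above 25% with normal brightness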;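 note: 0% = negative plate control signal and 100% = positive plate control signal; stock transfer was 100 nL into about 30 µL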
KSHV LANA nucl: inhibitors of KSHV LANA-nucleosome binding, primary screen, biochemical, fluorescence polarization, FITC-LANA1-23, chicken nucleosomes | z-score (test concentration not listed) | 0.3% of 51,000 active | FITC-LANA1-23 / chicken nucleosome fluorescence polarization; stronger effect = lower value;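 active = both repeat wells score below -2 in polarization z-score versus plate sample wells, excluding overly bright wells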;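 note: 100 nL library stock added to about 30 µL; numbers are from one replicate; some results filed as inactive read as strong as hits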
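Assay system: FITC-LANA peptide and chicken nucleosomes; input: 240 nM purified chicken nucleosomes (480 nM peptide binding sites), final; also added: 50 nM FITC-LANA1-23 probe; medium: TEN-BT buffer, pH 7.5; doses: pin-transferred compound, 100 nL; times: 10–45 min, room temperature; technique: fluorescence polarization; replication: duplicates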
* hit, by the source's call; x = no result given; & = joins results of further samples.

SMILES | BasE inh | KSHV LANA nucl
COC(=O)c1ccccc1NC(=O)COC(=O)C1=NNC(=O)CC1 | 0.8 | x
Cc1nn(C)c(Oc2cccc(Cl)c2)c1C(=O)O | x | 0.764
Cc1cc2c(cc1S(=O)(=O)C(C)CC(=O)N(C)Cc1ccccc1)OCC(=O)N2 (configuration not stated) | -2.5 | -0.786
CN1CCc2cccc3c2[C@H]1Cc1ccc(O)c(O)c1-3 | -1.0 | -0.0385&-0.502
CC1(C)Oc2ccc3ccc(=O)oc3c2/C(=C/O)C1=O | 1.7 | -0.157
Cc1cc(-c2ccc(S(=O)(=O)NC(C)(C)C)s2)n[nH]1 | -6.0 | 0.393
COC(=O)NCCOc1nc(N(C)C)nc(N(C)C)n1 | 1.1 | x
O=c1[nH]c(=S)[nH]c2c1cnn2-c1ccccc1 | -1.3 | x
CCCCOc1ccc(NC(=O)CCC)cc1 | -0.1 | -1.2
CCn1c(COc2ccccc2)nnc1SCC(=O)CC(=O)Nc1ccccc1OC | -1.0 | -0.927
O=S(=O)(/C=C/c1ccc(Cl)cc1Cl)NCc1cccs1 | x | 0.365
Cc1nc2ccc(NC(=O)[C@@H]3CCCN3S(=O)(=O)c3ccc4c(c3)OCCO4)cc2s1 | -0.2 | x
COC(=O)c1ccc(COC(=O)c2ccccc2NC(=O)Cc2ccccc2)o1 | 2.5 | x
CCC(C)NC(=O)CSc1nc2ccc(C(C)C)cc2cc1C#N (configuration not stated) | -2.1 | 0.902
Fc1ccc(-c2csc(-c3ccc(-c4cccs4)s3)n2)cc1F | 1.6 | 0.151
Cc1ccc(-c2csc(N3CCC(C(N)=O)(N4CCCCC4)CC3)n2)cc1 | 4.8 | 0.073
CC1CCc2cc(F)ccc2N1S(=O)(=O)c1ccc(N2CCCCS2(=O)=O)cc1 (configuration not stated) | 0.3 | 0.909
CC1Cc2ccccc2N1C(=O)COC(=O)c1ccc(S(=O)(=O)N2CCCC2)cc1 (configuration not stated) | -3.5 | x
COCc1c(C(=O)OCC(=O)c2ccc(Br)s2)oc2ccccc12 | 0.9 | x
O=C(Cc1ccsc1)OCc1nc2ccccc2s1 | 0.0 | x
CC(=O)Nc1nc2c(c(-c3ccccc3)c1C#N)CCCCC2 | -1.1 | 0.16
O=C(Nc1ccc(-c2cn3c(n2)SCC3)cc1)c1ccc2nonc2c1 | 2.5 | x
Cc1c(Cl)c(C(F)(F)F)nn1CCCNC(=O)C1CCCC1 | 1.5 | 0.719
CC1(C)CCc2cc(S(=O)(=O)NCc3ccc(S(N)(=O)=O)cc3)ccc2O1 | 2.4 | x
O=C(c1ccc2c(c1)N(Cc1ccc(F)cc1)CCS2)N1CCOCC1 | -2.1 | 0.009
O=C(NNc1ncnc2ccccc12)c1ccncc1 | 2.5 | x
Cc1nn(CC(=O)N(C(C)C)C(C)C)c(C)c1S(=O)(=O)NC(C)(C)C | -4.3 | x
C=C1Cn2c(nc3sc(C)c(C)c3c2=O)S1 | 3.1 | -1.32
COc1ccccc1N1CCN(c2nc(-c3cccnc3)nc3ccccc23)CC1 | 0.6 | x
O=C(NCCCO)Nc1ccc(Cl)cc1 | 4.9 | -0.304
CN(Cc1nnc(-c2ccccc2)o1)C1CCCCC1 | 0.4 | -0.651
Nc1ccc(OCCN2CCCCC2)cc1 | 0.1 | 0.163
COc1cccc(C2Nc3ccccc3NC3=C2C(=O)CCC3)c1 (configuration not stated) | 2.9 | -0.414
O=C(Cn1c(=O)oc2ccccc21)NCc1ccccc1 | -2.6 | x
COc1ccc(NC(=S)N(Cc2ccco2)Cc2cc3cc(C)c(C)cc3[nH]c2=O)cc1 | 1.2 | 0.695
O=C(c1ccc(S(=O)(=O)N2CCCCCC2)cc1)N1CCN(c2ccccn2)CC1 | 1.2 | -0.215
O=C(NN1CCOCC1)C12CC3CC(CC(C3)C1)C2 | 1.7 | -0.608
COc1ccc2cc(C(N)=O)/c(=N\NC(=O)c3ccccc3)oc2c1 | 2.4 | 0.0465
O=C(OCc1cccs1)c1ccc(-c2nc3ccccc3s2)s1 | 3.0 | x
CC(NC(=O)C12CC3CC(CC(C3)C1)C2)C(=O)N(C)C (configuration not stated) | 2.4 | -0.746
COc1ccc(CN(Cc2ccccc2)Cc2nnnn2C(C)(C)C)cc1 | 0.3 | 0.245
O=C(Oc1ccccc1)C1CCCN(C(=O)c2ccc(Cl)cc2)C1 (configuration not stated) | 2.8 | x
Cc1c(C#N)c2ccccc2n1CCOc1cccc2ccccc12 | -0.2 | -0.641
COc1ccc(CN2C(=O)c3cccnc3C2=O)cc1S(=O)(=O)N(CC(C)C)CC(C)C | 0.6 | x
CCNc1c(NS(=O)(=O)c2cccs2)c(=O)oc2ccccc12 | 0.4 | -0.129
O=C(CN1CCN(Cc2ccc(Cl)cc2)C1=O)NCc1ccccc1Cl | 0.6 | -0.126
CC1CCCCC1NS(=O)(=O)c1ccc2c(c1)CC(=O)N2C (configuration not stated) | -2.1 | -1.12
COC(CNC(=O)c1cn(C)c2ccc(S(=O)(=O)N3CCCC3)cc2c1=O)OC | 1.4 | 0.792
O=C1NC(=S)S/C1=C\c1ccccc1OCC(=O)N1CCCC1 | -0.3 | x
CCC(=O)Nc1ccc(C(=O)CSc2nc3ccccc3n2CCC#N)cc1 | -1.5 | x
CC(NC(=O)c1ccco1)C(=O)OCc1cccc(Cl)c1 (configuration not stated) | -2.4 | x
O=C(Oc1ccc2cc(-c3ccc(F)cc3)c(=O)oc2c1)c1ccco1 | 0.7 | -0.124
O=C(Nc1ccccc1Cl)NC1(C(=O)N2CCCCC2)CCCCC1 | -1.1 | 0.246
COc1ccccc1C(=S)N1CCCCC1 | -1.8 | 0.174
CCOC(=O)c1cc2sccc2n1CC(=O)NC(C)C | 1.0 | 0.0015
COc1ccccc1C1CC(=O)Nc2c1ccc(C)c2C (configuration not stated) | 0.5 | 0.145
CCC1C(=O)N=C(SCC(=O)Nc2ccc(Br)cn2)NC1=O (configuration not stated) | 2.7 | x
O=C(O)CSc1ncnc2sccc12 | 1.1 | x
CSc1ncc(C(=O)Nc2nc(CN3CCCCC3)cs2)n1-c1ccc(F)cc1 | -11.6 | x
Cc1ccccc1CN(C)CC(=O)Nc1ccccc1F | -2.8 | x

Structural class, those above with an NH in an aromatic ring
SMILES | BasE inh | KSHV LANA nucl
Cc1cc(-c2ccc(S(=O)(=O)NC(C)(C)C)s2)n[nH]1 | -6.0 | 0.393
O=c1[nH]c(=S)[nH]c2c1cnn2-c1ccccc1 | -1.3 | x
COc1ccc(NC(=S)N(Cc2ccco2)Cc2cc3cc(C)c(C)cc3[nH]c2=O)cc1 | 1.2 | 0.695

Later entries:
SMILES | BasE inh | KSHV LANA nucl
O=C(CSc1n[nH]c(=O)n1Cc1ccccc1)c1ccc(S(=O)(=O)N2CCCC2)cc1 | -4.2 | x
N#C/C(=C\Nc1ccccn1)C(=O)c1ccccc1 | 2.8 | 0.427
COc1ccc(C(=O)NCCc2cc3c(OC)ccc(OC)c3[nH]c2=O)cc1 | -0.2 | -0.073
CC(C)N(c1ccccc1)c1ccc(NC(=O)C2CCC2)cc1 | 4.9 | x
O=S(=O)(NCCc1ccccc1)c1ccc(S(=O)(=O)N2CCCCC2)cc1 | -0.2 | -0.234
Nc1cc(=O)[nH]c(=S)n1-c1ccc(Cl)cc1 | -2.3 | -0.044
Cc1cc(NC(=O)c2ccc(Br)o2)nc2c1c(=O)oc1ccccc12 | -1.9 | -0.071
CC1=Nn2c(nc3sc(-c4ccccc4)cc3c2=O)SC1 | 2.0 | 0.389
COC(=O)c1c(O)cc(=O)n2c1CCCCC2 | 1.8 | x
COc1ccc(CCCC(=O)NN=Cc2ccco2)cc1 | -0.3 | 0.648
Clc1cccc(N2CCN(c3nnc4n3CCCCC4)CC2)c1 | -0.6 | 0.669
CCC(=O)Nc1ccc(C(=O)OCC(=O)C(C)(C)C)cc1 | 1.3 | 0.217
O=C(O)c1ccccc1SCC(=O)N1CCN(Cc2ccccc2)CC1 | -0.3 | x
CN=C(Nc1cccc(C(F)(F)F)c1)c1ccncc1 | x | -0.211
Cc1[nH]c(=O)[nH]c(=O)c1NC(=O)c1ccccc1 | 0.2 | -0.463
N#CC1=CN(Cc2ccccc2)C=C(C=Nc2ccccc2)C1 | -2.1 | x
COC(=O)CN(c1cccc2ccccc12)S(C)(=O)=O | -0.9 | x
CSc1ncc(C(=O)Nc2ccccc2N2CCN(C)CC2)n1-c1ccccc1 | 1.9 | x
O=C(NCc1ccncc1)C1c2ccccc2Oc2ccccc21 | 2.6 | x
CCOc1cc(CCC(=O)O)on1 | 0.5 | 0.547

Some of the entries so far, with each value named:
compound: O=C(NCc1ccncc1)C1c2ccccc2Oc2ccccc21
  BasE inh: 2.6
  KSHV LANA nucl: x

compound: CSc1ncc(C(=O)Nc2ccccc2N2CCN(C)CC2)n1-c1ccccc1
  BasE inh: 1.9
  KSHV LANA nucl: x

compound: CC(C)N(c1ccccc1)c1ccc(NC(=O)C2CCC2)cc1
  BasE inh: 4.9
  KSHV LANA nucl: x

Next part
SMILES | BasE inh | KSHV LANA nucl
CSc1ccccc1C(=O)NC1CC(C)(C)NC(C)(C)C1 | 2.3 | 0.458
CN(C)C(=O)c1cnc(-c2ccccc2)nc1-c1ccccc1 | x | -0.31
COc1ccc(/C(O)=C(/C#N)c2nc3ccccc3c(=O)[nH]2)cc1 | 3.9 | -1.69
COc1ccc(-n2c(C)nc3cc(C(=O)O)ccc32)cc1 | -0.1 | -1.1
CCCCNC(=O)Cn1c(-c2ccc(C)cc2)noc1=O | -2.6 | 1.22
CCCNC(=O)c1cc(S(=O)(=O)N2CCCCC2)c[nH]1 | -0.3 | -1.32
COc1ccccc1OCC(=O)NCCCn1ccnc1 | -0.1 | x
O=C(Oc1ccccc1)c1ccc(-n2cnnn2)cc1 | -0.4 | -0.108
COCCn1c(C)cc(C(=O)COC(=O)c2cc3c(s2)CCCCC3)c1C | 3.4 | x
COc1ccc(C(C)(C)C)cc1NC(=O)c1ccoc1C | 4.1 | 0.497
O=C(CSc1nnc(CNC(=O)c2ccco2)n1-c1cccc(C(F)(F)F)c1)Nc1ccc(F)cc1 | -2.4 | -0.59
COc1ccc(CCN=C(C)c2c(O)cc(C)oc2=O)cc1 | -0.6 | x
Cn1nc(C(=O)N2CCOCC2)c2ccccc2c1=O | 0.2 | -0.404
Cc1cc(NC(=O)CN(C)Cc2c(C)nn(-c3ccccc3)c2C)no1 | -0.2 | x
Cc1ccc2oc(=O)c3cc(C(=O)N4CCN(C)CC4)sc3c2c1 | -3.1 | 1.03
Cc1ccc(S(=O)(=O)c2nc(S(=O)(=O)C3CCCCC3)sc2N(C)C)cc1 | -0.3 | x
COc1ccc2c(c1)C(C(C#N)C#N)c1c(nc(N)c(C#N)c1N)O2 (configuration not stated) | 2.2 | x
COCC(C)n1c(C)cc(C(=O)COC(=O)c2ccc(N3CCCC3=O)cc2)c1C (configuration not stated) | -0.5 | x
N#CC(C#N)=C1C=C(c2ccc(O)cc2)Oc2ccccc21 | 33.8 | x
COC(=O)c1c(NC(=O)C(C)C)sc2c1CCC2 | 5.2 | x

Given with each value named: 2 of the compounds above
CN(C)C(=O)c1cnc(-c2ccccc2)nc1-c1ccccc1
  BasE inh: x
  KSHV LANA nucl: -0.31
COc1ccc(/C(O)=C(/C#N)c2nc3ccccc3c(=O)[nH]2)cc1
  BasE inh: 3.9
  KSHV LANA nucl: -1.69

(more compounds)
SMILES | BasE inh | KSHV LANA nucl
Clc1ncc(CN2CCc3ccccc3C2)s1 | x | -0.601
Cc1ccc2c(=O)cc(C(=O)N(Cc3ccccc3)Cc3ccco3)oc2c1 | 1.0 | -0.952
Cc1ccc(CNC(=O)c2cc3sccc3n2C)cc1 | -2.0 | -0.473
COC(=O)CCn1c(=O)c2cccn2c2cccnc21 | -0.1 | -0.428
Clc1cccc(CNNc2nc(N3CCCCC3)nc(N3CCCCC3)n2)c1 | 1.2 | -0.419
CC1=NCCN1CCNC(=O)Nc1ccc(C(C)(C)C)cc1 | -2.0 | x
Cc1cc(N/C(=N\S(=O)(=O)c2ccc(F)cc2F)c2ccccc2)no1 | -8.8 | x
Cc1ccc2n1CCNC2C(C)C (configuration not stated) | -3.1 | 2.26
COc1ccc(-n2cc(-c3ccc(OC)c(OC)c3)[nH]c2=O)cc1 | 9.6 | -0.209
CCCCN=c1scc(-c2ccco2)n1/N=C/c1c[nH]c2ccccc12 | 1.8 | x
C#CCN1CCc2cc(OC)c(OC)cc2C1C (configuration not stated) | 5.4 | -0.113
NC(=O)c1ccc(NC(=O)C2CCCCC2)cc1 | 2.8 | -0.299
Clc1ccc(C2Oc3ccccc3C3CC(c4ccco4)=NN32)cc1 (configuration not stated) | -18.4 | 3.08
CCNS(=O)(=O)c1ccc(CCC(=O)Nc2ccc(C(=O)OC)cc2)cc1 | 1.3 | -1.16
Cc1cccc(C)c1OCC(C)N (configuration not stated) | -1.6 | 1.1&-0.655
O=C(N1CCN(c2ccccn2)CC1)C12CC3CC(CC(C3)C1)C2 | 3.6 | 0.148
Cc1ccc(C2=NN(C(=O)c3ccc(Br)o3)C(c3ccc(C)cc3)C2)cc1 (configuration not stated) | 2.1 | x
COC(=O)c1cc(N2C(=O)C3C4C=CC(C)(O4)C3C2=O)ccc1Cl (configuration not stated) | 0.2 | x
Cc1ccc(C)c(C(C)c2ccc(C)nc2)c1 (configuration not stated) | -4.6 | 1.53
CCN=c1scc(-c2cc(C)c(C)cc2C)n1/N=C/c1ccc(C)o1 | 0.1 | x
COc1ccc(CSc2cccc[n+]2[O-])cc1F | 1.5 | x

High-throughput results deposited in PubChem by ICCB-Longwood Screening Facility, Harvard Medical School.

The list is partial (hit frequency here may not be typical).
